AID504770 – growth inhibitors of E. coli YBA685 in a screen for V. cholerae RctB (chromosome II replication) inhibitors | AID 504770 | z-score (no concentration beside the values) | E. coli YBA685 rctB-dependent plasmid, OD600 growth, 3 h; stronger effect = lower value | hit rate 0.27% among 130,000;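 active means z-score under -2 on both plates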;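 further: wells of about 30 µL received 100 nL stock; score is relative to mean and SD of the test wells; the first replicate is given; strong numbers were not always called active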
Ba CapD inh – blocks the Bacillus anthracis CapD enzyme. z-score (test concentration not listed). purified CapD enzyme, fluorescence intensity read-out; stronger effect = lower value; some hits fall short of the stated cut. hit rate 0.23% among 140,000;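 active means z-score under -4 in either of two replicates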;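 further: stock transfer was 100 nL into about 40 µL; score is relative to mean and spread of the plate; one replicate is shown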
* hit, by the source's call; i = inactive; x = no result given. Rows were taken by chance (roughly 0.37% active in at least one column).

SMILES	AID504770	Ba CapD inh
COC(=O)c1ccc2c(=O)n(CCN3CCOCC3)c(SCC(=O)c3ccc(Br)cc3)nc2c1	x	-0.27
COC(=O)c1ccc(C(=O)Nc2ccc3sccc3c2)cc1	-0.6	1.8
CC1CCC(C(C)C)C(=O)/C1=C/c1ccc(Br)cc1 (stereo not drawn)	x	-0.31
Cc1nn(-c2ccccc2)c(Cl)c1C1N2CCCN1CC2 (stereo not drawn)	1.2	x
O=C(Cc1ccsc1)OC(C(=O)c1ccccc1)c1ccccc1 (stereo not drawn)	-0.3	-0.04
CCOC(=O)COc1ccc(C2=Nc3ccccc3NC(c3ccccc3)C2)cc1 (stereo not drawn)	0.25	0.18
CCCN(CCC)c1nc(N2CCOCC2)nc(N2CCOCC2)n1	x	-0.2
NCCCNC(=O)c1ccco1	0.45	x
CCCN(Cc1cccs1)C(=O)NC12CC3CC(CC(C3)C1)C2	-1.4	-0.26
CCCCCCNc1nc(NCc2ccco2)nc(OCC)n1	-0.25	0.24
CC(C)(C)c1csc(-c2ccc(OC(F)(F)F)cc2)n1	-0.7	10
NC(=S)Nc1nc2ccccc2s1	-0.2	x
CC1CN(C(=O)N2CCC(C(=O)N3CCN(c4ccccn4)CC3)CC2)c2cc(Cl)ccc2O1 (stereo not drawn)	-0.65	3.2
O=C(CCCn1ncn2c(cc3occc32)c1=O)NCc1ccccc1	0.7	-0.54
CN(c1ccccc1)C(C(=O)NC1CCCC1)c1ccc(Cl)cc1 (stereo not drawn)	x	-1.3
NC(=O)c1nn(-c2ccccc2)c(=O)cc1O	-0.15	-0.27
O=C(Cc1cccc2ccccc12)OCC(=O)c1ccc(Br)cc1	-0.05	-0.28
FC(F)(F)c1ccc(-c2ncc(-c3ccnc4ccccc34)c(-c3ccccc3)n2)cn1	x	-0.43
Cn1c(=O)c2c(ncn2Cc2ccc(F)cc2)n(C)c1=O	0.85	-0.35
O=C(OCc1nc2ccccc2s1)C1CCN(S(=O)(=O)c2ccccc2C(F)(F)F)CC1	-0.3	x
O=c1cc(-c2ccccn2)c2ccc(OCc3ccccn3)cc2o1	x	9.3
CC(Sc1nnc(-c2cccs2)n1C1CC1)C(=O)N1CCNC1=O (stereo not drawn)	0.1	x
CCc1ccc(C(=O)c2cnc3cc4c(cc3c2N2CCCC2)OCO4)cc1	1.4	0.4
COc1ccc(C2=N/C(=C\c3cc(Br)ccc3OC)C(=O)O2)c(Cl)c1	x	0.11
CCn1c(CCC(=O)NCc2ccc(C)cc2)nc2cc(S(=O)(=O)N(C)C)ccc21	0.2	x
SMILES	AID504770	Ba CapD inh
CC(NC(=O)C1C(=O)NC2(C)CC1c1ccccc1O2)c1ccccc1 (stereo not drawn)	0.75	0.22
Cc1ccc(-c2[nH]nc3nc(C(=O)O)cc(-c4cccc5ccccc45)c23)cc1	0.05	12
Cc1cc(OCC(=O)c2ccc(F)cc2)ccc1N1C(=O)CCC1=O	-0.8	-0.82
COC(=O)CSC1=C(C#N)C(c2cccc(Cl)c2Cl)C2=C(CCCC2=O)N1 (stereo not drawn)	-0.85	3
O=C(C1CCC(CNS(=O)(=O)c2ccccc2)CC1)N1CCCCC1 (stereo not drawn)	0.2	-0.005
Cc1ccc(Nc2ncnc3c2cnn3-c2ccccc2)cc1	-0.2	0.2
CCOC(=O)c1ccc(NCc2cn[nH]c2-c2ccc(C)cc2)cc1	0.45	0.49
NC(=O)COc1ccc(/C=C2/NC(=O)NC2=O)cc1	0.7	-3.5
CCCCC(=O)NCc1ccc2[nH]c(C)cc2c1	0	0.03
O=C1c2oc3ccccc3c(=O)c2C(c2cccc(Cl)c2)N1CCO (stereo not drawn)	0.65	-0.5
CN1CCN(c2c3c(nc4ccccc24)-c2ccccc2CC3)CC1	0	1.7
Cc1ccc(Oc2ccc(C(F)(F)F)cn2)c2c1CCC2	1.6	-0.34
NNC(=O)CN1CCCCCC1=O	0.2	x
Cc1cc(C)n(CCC(=O)NC2CCCc3ccccc32)n1 (stereo not drawn)	-0.05	-0.21
CN1C(=O)C(CC(=O)c2ccc(Br)cc2)C(=O)N(C)C1=O	x	-0.015
CC(=O)Oc1c(C(C)(C)C)ccc(C(C)(C)C)c1O	0.2	0.16
CCN(CC)CCC1S(=O)(=O)CC(c2ccccc2)CS1(=O)=O (stereo not drawn)	0.1	0.62
OCC[N+]12CCCCC1[C@H](CO)CCC2 (stereo partly drawn)	-0.65	0.68
CCC(C)c1ccc(N2C(=O)c3ccccc3NC2c2ccc(Br)cc2)cc1 (stereo not drawn)	x	3.8
Cc1ccc(CC(=O)N2CCN(S(C)(=O)=O)CC2)cc1	3.8	-1.8
c1ccc2c(c1)oc1c(N3CCCCC3)ncnc12	-0.15	-0.6
C=CCOC1C=CC=CC1C(c1c(C)[nH][nH]c1=O)c1c(C)[nH][nH]c1=O (stereo not drawn)	1.7	x
O=C(O)c1ccc2[nH]c3c(c2c1)CCCC3	0.35	3.6
COC(=O)c1c(C)oc(C)c1S(=O)(=O)N1CCCc2ccccc21	-0.7	1.3
c1ccc(CN2CCN(Cc3ccccc3)C2c2cccs2)cc1	x	5.8
SMILES	AID504770	Ba CapD inh
O=C(O)CCC(=O)Nc1ccc2c(c1)OCCCO2	0.6	0.76
CCN1CCN(Cc2csc(C)c2C)CC1	-0.3	0.35
CCOc1ccc(C(=O)Nc2ccc(-c3nc4ccccc4o3)cc2)cc1Br	-0.2	4.4
O=C1c2ccccc2C(=O)N1CC12CC3CC(CC(C3)C1)C2	-0.1	0.19
O=[N+]([O-])c1ccc(-c2nc(NCc3cccnc3)c3ccccc3n2)cc1	x	0.12
CCn1cc(C(=O)OCc2ccccc2)c(=O)c2ccc(C)nc21	-0.6	-1.6
CCCCn1c(CCNC(=O)c2ccco2)nc2ccccc21	1.3	0.3
Cc1ccc(Nc2nc(COC(=O)/C=C/c3ccc(C)o3)cs2)cc1	1.1	x
O=C(Nc1cc(=O)[nH]c(=O)[nH]1)c1cc(Br)ccc1Cl	0.25	x
COc1ccc(C(=O)N2CCN(C34CC5CC(CC(C5)C3)C4)CC2)cc1OC	-0.4	0.29
COc1ccc(/C=C/C(=O)N2CCC(CN3C(=O)c4cccc5cccc(c45)C3=O)CC2)cc1OC	x	3.4
Cc1ccc(NC(=O)NCCCN2CCCC2=O)cc1	-0.5	0.1
COc1cccc(C=Nc2cc(C(F)(F)F)cc(C(F)(F)F)c2)c1O	-0.05	0.55
COc1ccc(OC(=O)c2csc(Cc3c(Cl)cccc3Cl)n2)cc1	-0.2	9.2
Cc1ccccc1N=C(NOCc1ccccc1)c1nonc1N	x	0.11
Cc1ccc(/C=C/C(=O)NCCCn2ccnc2)cc1	-0.65	x
CCOc1ccc(N2C(=O)CSC23C(=O)N(CN2CCN(c4ccc(F)cc4)CC2)c2ccccc23)cc1 (stereo not drawn)	x	-0.9
Cc1cccc(N2CN(CCc3ccccc3)CNC2=S)c1C	0.65	0.52
Cc1ccc(-c2noc(-c3cc(C(C)C)[nH]n3)n2)cc1	0.5	0.34
CCN(c1ccccc1)c1cc2ccccc2c(=O)[nH]1	-0.6	x
COc1cc(OC)nc(CCC(=O)N(C)OC)n1	x	-0.47
CCOC(=O)N1CCC(NC(=O)CCS(=O)(=O)c2ccc3c(c2)CCN3C(=O)CC)CC1	-0.9	0.1
O=S(=O)(c1cccc(C(F)(F)F)c1)n1nc(C(F)(F)F)c2cnccc21	0.7	6.1
CC(C)(C)c1ccc(NC(=O)/C=C/c2ccc(-c3cccs3)s2)cc1	1.1	0.17
C=C(C)[C@@H]1[C@H]2OC(=O)[C@@H]1[C@]1(O)C[C@H]3O[C@]34C(=O)OC2[C@]14C (stereo partly drawn)	x	-0.04
SMILES	AID504770	Ba CapD inh
O=C(O)CN1CC(=O)NC1=O	-0.65	x
CN(C)c1cc(C(F)(F)F)cnc1/C(N)=N/O	-0.8	-0.7
Cc1ccc(/C=N/n2cnc3sc(C)c(C)c3c2=O)o1	-0.8	x
Cc1cc(=O)[nH]c2c1c(-c1cccs1)nn2C	2.6	0.8
CCNC(=S)N1CCC(C(=O)c2ccc3c(c2)OCCO3)CC1	-0.3	x
O=C(O)c1ccc(OC(=O)c2ccccc2)cc1	0.25	-0.28
CC(C)c1c(C#N)c(N)nc(SCC(=O)c2ccc(Cl)c(Cl)c2)c1C#N	-0.7	-0.19
CCOc1ccc(NC(=O)c2sc3nc4c(cc3c2N)C(=O)CC(C)(C)C4)cc1	x	-0.49
Cc1c(C(=O)N2CCCCC2)sc(NC(=O)C(C)C)c1C#N	-0.6	x
CNC(=O)C1C2C=CC3(O2)C1C(=O)N(C1CC1)C3C(=O)NCc1ccc(OC)cc1 (stereo not drawn)	-0.45	x
COc1cccc(NS(=O)(=O)c2cc(C(=O)N3CCN(Cc4ccccc4)CC3)ccc2NCc2ccc(F)cc2)c1	x	1.1
Cn1nc(C(=O)NCCN2CCOCC2)c2c1-c1ccccc1CC2	-0.45	0.3
CCSC1=N/C(=C\c2cc3c(cc2Br)OCO3)C(=O)S1	-0.8	6.9
CCc1ccc(NC(=O)C2CCN(S(=O)(=O)c3c(C)noc3/C=C/N(C)C)CC2)cc1	-0.2	-1.3
CCOc1c(OC)cc(C2C(C#N)=C(N)Oc3n[nH]c(-c4ccncc4)c32)cc1OC (stereo not drawn)	x	0.03
Cc1ccc(C2Nc3ccccc3C(C)(C)O2)o1 (stereo not drawn)	-1.1	x
Nc1ncnc2c1ncn2C1OC(CO)[C@H](O)C1O (stereo partly drawn)	x	0.12
CC(C)CCOC(=O)c1cc2cc(Br)ccc2oc1=O	-0.25	-0.92
Oc1c(CN2CCCCC2)cc(Cl)c2cccnc12	-0.05	0.15
COC(=O)c1ccc(Sc2ccc(Cl)cc2)c(N)c1	-0.45	12
CCOc1ccc(NC(=O)CSc2nc3[nH]ncc3c(=O)n2-c2ccccc2OC)cc1	0.45	-0.035
O=C(O)CCc1nc(-c2cccnc2)no1	-1.2	x
CCCCn1nc(C)c(C(=O)NC2=NCCS2)c1Cl	0	x
CCC12CN3CC(CC)(CN(C1)C31C(=O)N(C)c3ccc(C)cc31)C2=O (stereo not drawn)	-0.3	0.45
COc1ccc(C(=O)c2ccc(OC)c(OC)c2)cc1OC	-0.45	i
SMILES	AID504770	Ba CapD inh
COC(CNC(=O)c1coc2nc3ccccc3nc12)OC	-0.7	0.47
CCOC(=O)c1ccc(NC(=O)c2c(-c3c(Cl)cccc3Cl)noc2C)cc1	x	-0.56
Cc1nc2ccccc2c(C(=O)O)c1C(=O)O	0.35	0.14
O=C(c1cc(-c2ccccc2)nc2ccccc12)N1CCN(Cc2ccccc2)CC1	x	0.04
COC(=O)c1sc(-c2ccccc2)cc1N	x	12
COc1ccc(-n2nc3cc(C)c(NC(=O)c4ccc5c(c4)OCCO5)cc3n2)cc1	x	0.74
O=C(O)c1ccccc1C(=O)N1CCCc2ccccc21	0.35	1.7
COc1cccc(CSc2ccc(S(=O)(=O)N3CCOCC3)cc2C(=O)NCCC2=CCCCC2)c1OC	x	-0.99
COc1cccc(NC(=O)CN(c2cc(C(F)(F)F)ccc2Cl)S(=O)(=O)c2ccccc2)c1	x	-0.99
Cc1cc(=O)n2c(-c3ccc(Cl)cc3)csc2n1	x	0.075
Cc1nn(Cc2ccc(F)cc2)c(C)c1NC(=O)c1cc(-c2ccc3c(c2)OCO3)on1	1.8	10
CC(C)(C)S(=O)(=O)/C(C#N)=C/Nc1ccccn1	-0.9	-0.94
O=S(=O)(c1cnc[nH]1)N1CCCCC1	-0.6	-0.27
Cc1ccc(S(=O)(=O)NC2=NCN(C3CCN(Cc4ccccc4)CC3)CN2)cc1	-0.9	-0.22
NC(=O)c1cnn(-c2ccc3ccccc3c2)c1N	0.95	0.88
CN(CC(=O)N1CCc2ccccc21)C1CCS(=O)(=O)C1 (stereo not drawn)	0.4	x
CCC(=O)NC(C)c1nc2ccccc2n1CC (stereo not drawn)	0.2	0.025
CC1CCC2(CC1)NC(=O)N(NC(=O)CN1CCN(Cc3ccc4c(c3)OCO4)CC1)C2=O (stereo not drawn)	0.15	x
CCN1C(=O)S/C(=C\c2cc(C)n(-c3ccccn3)c2C)C1=O	-0.2	x
CCOc1cc(Br)c(CC#N)cc1OCC	-0.05	x
CCOC(=O)c1cc2ccccc2n1CCN(C)C	-0.6	0.25
COC(=O)COc1ccc(S(=O)(=O)c2ccc(OCC(=O)OC)cc2)cc1	-0.25	0.4
Cc1c(C(=O)Nc2ccccc2C#N)oc2ccccc12	0.65	20

Among those listed so far, 14 have an aryl methoxy group.
SMILES	AID504770	Ba CapD inh
COc1ccc(C2=N/C(=C\c3cc(Br)ccc3OC)C(=O)O2)c(Cl)c1	x	0.11
COc1ccc(C(=O)N2CCN(C34CC5CC(CC(C5)C3)C4)CC2)cc1OC	-0.4	0.29
COc1ccc(/C=C/C(=O)N2CCC(CN3C(=O)c4cccc5cccc(c45)C3=O)CC2)cc1OC	x	3.4
COc1cccc(C=Nc2cc(C(F)(F)F)cc(C(F)(F)F)c2)c1O	-0.05	0.55
COc1ccc(OC(=O)c2csc(Cc3c(Cl)cccc3Cl)n2)cc1	-0.2	9.2
COc1cc(OC)nc(CCC(=O)N(C)OC)n1	x	-0.47
CNC(=O)C1C2C=CC3(O2)C1C(=O)N(C1CC1)C3C(=O)NCc1ccc(OC)cc1 (stereo not drawn)	-0.45	x
COc1cccc(NS(=O)(=O)c2cc(C(=O)N3CCN(Cc4ccccc4)CC3)ccc2NCc2ccc(F)cc2)c1	x	1.1
CCOc1c(OC)cc(C2C(C#N)=C(N)Oc3n[nH]c(-c4ccncc4)c32)cc1OC (stereo not drawn)	x	0.03
CCOc1ccc(NC(=O)CSc2nc3[nH]ncc3c(=O)n2-c2ccccc2OC)cc1	0.45	-0.035
COc1ccc(C(=O)c2ccc(OC)c(OC)c2)cc1OC	-0.45	i
COc1ccc(-n2nc3cc(C)c(NC(=O)c4ccc5c(c4)OCCO5)cc3n2)cc1	x	0.74
COc1cccc(CSc2ccc(S(=O)(=O)N3CCOCC3)cc2C(=O)NCCC2=CCCCC2)c1OC	x	-0.99
COc1cccc(NC(=O)CN(c2cc(C(F)(F)F)ccc2Cl)S(=O)(=O)c2ccccc2)c1	x	-0.99

Screening results from PubChem.
